Screening data deposited in PubChem BioAssay by Broad Institute.
Vaccinia stage: blocks a specific stage of Vaccinia orthopoxvirus infection; Vaccinia-infected cells, mCherry/Venus stage reporter fluorescence; stronger effect = lower value; some inactives read as strong as hits; activity change (mCherry), % (no concentration beside the values); hit rate 0.01% among 89,000; AID 1053133;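 active means mCherry past -33% and 40 or more points under the early reporter, replicates agreeing; inconclusive means past -33% without that gap or agreement; tested in A549 cells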;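 further: scaled between vehicle wells and reference inhibitor wells; 23 nL library stock went into each well; one replicate is shown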
Vaccinia stage Venus: further read-out of Vaccinia stage, marked with its call; activity change (Venus), %; measured here: Venus reporter, other viral stage;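 negative = less Venus signal; first of two replicates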
An asterisk follows results filed as active; ? = inconclusive; · = no result given; & = joins results of further samples. The list is partial; rates above refer to the full screens.

Below each compound: Vaccinia stage	Vaccinia stage Venus
Cc1ccc(S(=O)(=O)Nc2ccc3c(c2)CC(=O)N([C@@H](C)CO)C[C@@H](C)[C@@H](CN(C)C(=O)Nc2ccccc2)O3)cc1
→ -10	-2
CCCNC(=O)N(C)C[C@@H]1Oc2cc(-c3cccnc3)ccc2S(=O)(=O)N([C@@H](C)CO)C[C@H]1C
→ 4	1
O=C1CN(Cc2ccccc2)C[C@H]2[C@H](c3ccc(Br)cc3)[C@H](CO)N12
→ 29	2
C/C=C/c1cnc2c(c1)C(=O)N([C@H](C)CO)C[C@@H](C)[C@@H](CN(C)C(=O)c1cccnc1)O2
→ 0	-4
CO[C@H]1CC[C@@H]2CCOc3c(C#N)cccc3C(=O)N(C)CC3(CCCCC3)CC(=O)N(C)C[C@H]1O2
→ 0	-1
C[C@H](CO)N1C[C@H](C)[C@H](CN(C)C(=O)Nc2ccc3c(c2)OCO3)Oc2ccc(NC(=O)Cc3cn(C)c4ccccc34)cc2C1=O
→ -2	0
O=C(NC1CCCC1)N1CC(=O)N2[C@@H](CO)[C@H](c3ccc(-c4cccnc4)cc3)[C@@H]2C1
→ 25	15
C[C@@H]1CN([C@@H](C)CO)C(=O)c2cccc(NC(=O)C3CCCCC3)c2O[C@H]1CN(C)S(=O)(=O)c1cccs1
→ 0	-3
CO[C@@H]1CN(C)C(=O)c2ccc(NC(=O)Nc3cccc(F)c3)cc2OC[C@@H](C)NC[C@@H]1C
→ -7	-3
C[C@H](CO)N1C[C@H](C)[C@H](CN(C)Cc2ccccc2)Oc2c(NC(=O)C3CCCCC3)cccc2C1=O
→ 3	11

Quoted at random: three records from the list.
Below each compound: Vaccinia stage	Vaccinia stage Venus
C[C@H](CO)N1C[C@H](C)[C@H](CN(C)C(=O)Nc2ccc3c(c2)OCO3)Oc2ccc(NC(=O)Cc3cn(C)c4ccccc34)cc2C1=O
→ -2	0
CCCNC(=O)N(C)C[C@@H]1Oc2cc(-c3cccnc3)ccc2S(=O)(=O)N([C@@H](C)CO)C[C@H]1C
→ 4	1
O=C1CN(Cc2ccccc2)C[C@H]2[C@H](c3ccc(Br)cc3)[C@H](CO)N12
→ 29	2

Entries of single compounds as entered above:
`O=C(NC1CCCC1)N1CC(=O)N2[C@@H](CO)[C@H](c3ccc(-c4cccnc4)cc3)[C@@H]2C1` is listed with Vaccinia stage = 25; Vaccinia stage Venus = 15
`Cc1ccc(S(=O)(=O)Nc2ccc3c(c2)CC(=O)N([C@@H](C)CO)C[C@@H](C)[C@@H](CN(C)C(=O)Nc2ccccc2)O3)cc1` is listed with Vaccinia stage = -10; Vaccinia stage Venus = -2

New compounds follow:
Below each compound: Vaccinia stage	Vaccinia stage Venus
C[C@H]1CN([C@@H](C)CO)C(=O)c2cc(NC(=O)Cn3cnnn3)ccc2O[C@@H]1CN(C)S(=O)(=O)c1cn(C)cn1
→ 2	4
O=C(Nc1ccc(Cl)c(Cl)c1)N[C@H]1CC[C@H](CCn2cc(C3CC3)nn2)O[C@H]1CO
→ -2	0
C[C@@H]1CN([C@H](C)CO)C(=O)Cc2cc(NC(=O)Nc3ccccc3)ccc2O[C@H]1CN(C)Cc1ccc2c(c1)OCO2
→ -15	-9
CCS(=O)(=O)N1CC2(CN(CC3CCOCC3)[C@H](CO)c3c2c2ccc(OC)cc2n3C)C1
→ 13	9
CNC[C@H]1Oc2ccc(NC(=O)Nc3ccc(OC)cc3)cc2C(=O)N([C@@H](C)CO)C[C@H]1C
→ 3	6
Cc1ccc(S(=O)(=O)Nc2ccc3c(c2)C(=O)N([C@H](C)CO)C[C@H](C)[C@H](CN(C)C(=O)Nc2ccccc2)OCCCC[C@@H](C)O3)cc1
→ 16	13
COc1ccccc1CNC(=O)C[C@H]1C[C@@H]2c3cc(NC(=O)c4ccc5c(c4)OCO5)ccc3O[C@@H]2[C@H](CO)O1
→ -7	-8
CC(=O)N(C)C[C@H]1Oc2cc(-c3ccc(C)cc3)ccc2S(=O)(=O)N([C@@H](C)CO)C[C@@H]1C
→ -13	-16
C[C@H]1CN([C@@H](C)CO)C(=O)c2cccc(NC(=O)c3nc4ccccc4s3)c2O[C@@H]1CN(C)S(=O)(=O)c1ccccc1
→ 8	5
C[C@H]1CN([C@@H](C)CO)C(=O)c2cc(NC(=O)Cc3cn(C)c4ccccc34)ccc2O[C@H]1CN(C)S(=O)(=O)c1cn(C)cn1
→ 4	6
COCCNC(=O)C[C@H]1CC[C@H]2[C@@H](COC[C@H](O)CN2C(=O)Nc2ccc3c(c2)OCO3)O1
→ 6	2
N#C[C@@H]1[C@H](c2ccccc2-c2ccccc2)[C@@H](CO)N1c1ncc(-c2ccccc2)s1
→ 9	8
C[C@H]1CN([C@@H](C)CO)C(=O)Cc2cc(NC(=O)c3ccncc3)ccc2O[C@@H]1CN(C)C(=O)Nc1ccc2c(c1)OCO2
→ -8	3
COc1ccc(NC(=O)N(C)C[C@@H]2Oc3ccc(NC(=O)C4CCCCC4)cc3C(=O)N([C@H](C)CO)C[C@@H]2C)cc1
→ 5	-3
C[C@H](CO)N1C[C@H](C)[C@H](CN(C)Cc2ccc(C(F)(F)F)cc2)Oc2c(NC(=O)C3CC3)cccc2C1=O
→ 4	3
C/C=C/c1ccc2c(c1)O[C@H](CN(C)S(=O)(=O)c1ccc(C)cc1)[C@H](C)CN([C@H](C)CO)S2(=O)=O
→ -33	-27
COc1ccccc1CN(C)C[C@@H]1OCc2ccccc2-c2c(n(C)c3ccccc23)C(=O)N([C@@H](C)CO)C[C@H]1C
→ ?	·
C[C@H]1CCCCO[C@@H](CN(C)C(=O)C2CCCCC2)[C@@H](C)CN([C@@H](C)CO)C(=O)c2cc(NC(=O)NC3CCCCC3)ccc2O1
→ -9	-10
N#C[C@H]1[C@H](c2ccc(C#CCC3CCCC3)cc2)[C@H](CO)N1C(=O)CN1CCOCC1
→ -3	-3
C[C@H](CO)N1C[C@H](C)[C@H](CN(C)S(=O)(=O)c2ccc(Cl)cc2)Oc2ccc(N(C)C)cc2CC1=O
→ -7	-9
Cc1noc(C)c1NC(=O)Nc1ccc2c(c1)C(=O)N(C)[C@@H]1CC[C@H](CC(=O)N(C)C)O[C@H]1CO2
→ 9	12
C[C@@H]1CN([C@@H](C)CO)C(=O)c2cc(NC(=O)Nc3ccc(F)cc3)ccc2O[C@@H](C)CCCCO[C@@H]1CN(C)C(=O)CCCN(C)C
→ 23	9
C[C@H](CO)N1C[C@H](C)[C@H](CN(C)CC2CC2)OCCCC[C@H](C)Oc2ccc(NC(=O)c3ccncc3)cc2C1=O
→ -3	-2
CO[C@H]1CN(C)C(=O)c2cc(NC(=O)Cc3ccccc3)ccc2OC[C@H](C)N(C(=O)c2ccccc2F)C[C@@H]1C
→ 2	2
O=C(C[C@H]1CC[C@@H]2[C@H](COC[C@@H](O)CN2CCC(F)(F)F)O1)N1CCC(Cc2ccccc2)CC1
→ -2	1
C[C@H](NC(=O)C[C@@H]1C[C@@H]2c3cc(NC(=O)NC4CCCC4)ccc3O[C@@H]2[C@H](CO)O1)c1ccccc1
→ 2	6
C[C@H]1CN([C@@H](C)CO)C(=O)c2cccc(NC(=O)c3ccc(-c4nccs4)cc3)c2O[C@@H]1CN(C)C(=O)Nc1ccc(C(F)(F)F)cc1
→ ?	·
COc1ccccc1NC(=O)N[C@@H]1CC[C@H](CCn2cc(-c3ccccc3)nn2)O[C@@H]1CO
→ -4	-7
Cc1noc(C)c1S(=O)(=O)Nc1ccc2c(c1)C(=O)N([C@@H](C)CO)C[C@H](C)[C@H](CN(C)Cc1ccc3c(c1)OCO3)O2
→ 6	8
CCCNC(=O)N1CC2(CCN(CC3CCCC3)CC2)c2c(n(C)c3cc(OC)ccc23)[C@@H]1CO
→ ?	·
COc1ccc(C#Cc2ccc([C@H]3[C@@H](CO)N4C(=O)CN(C(=O)c5ccccc5)C[C@@H]34)cc2)cc1
→ 13	7
C[C@H]1CN([C@@H](C)CO)C(=O)c2cc(C#CCC3CCCC3)cnc2O[C@@H]1CN(C)S(=O)(=O)c1cccs1
→ ?	·
CS(=O)(=O)N1CC(=O)N2[C@H](C1)[C@H](c1ccc(C#CCc3ccccc3)cc1)[C@@H]2CO
→ 18	-6
C[C@H](CO)N1C[C@H](C)[C@@H](CN(C)Cc2cncnc2)Oc2ncc(C#CC(C)(C)O)cc2C1=O
→ 2	1
C[C@H]1CN([C@@H](C)CO)S(=O)(=O)c2ccc(C#Cc3cccc(F)c3)cc2O[C@@H]1CN(C)C(=O)CN1CCOCC1
→ ?	·
C[C@H]1CN([C@@H](C)CO)C(=O)c2cc(NC(=O)Nc3ccccc3)ccc2O[C@H]1CN(C)Cc1ccc2c(c1)OCO2
→ -21	-16
Cc1ccc(S(=O)(=O)Nc2cccc3c2O[C@@H](CN(C)Cc2ccncc2)[C@@H](C)CN([C@H](C)CO)C3=O)cc1
→ 8	4
COCC(=O)N1[C@H](CO)[C@@H](c2ccccc2)C12CN(C(=O)Nc1ccccc1F)C2
→ 10	10
COc1ccccc1S(=O)(=O)N[C@H]1CC[C@H](CCNC(=O)C2CCC2)O[C@H]1CO
→ -2	0
Cc1noc(C)c1NC(=O)Nc1ccc2c(c1)CC(=O)N([C@@H](C)CO)C[C@H](C)[C@H](CN(C)S(=O)(=O)c1ccc(Cl)cc1)O2
→ -4	-5
CC(C)c1cn(CC[C@@H]2CC[C@H](N)[C@@H](CO)O2)nn1
→ 3	4
C[C@@H]1CN([C@H](C)CO)C(=O)c2cc(C#Cc3ccccc3F)cnc2O[C@@H]1CN(C)C(=O)c1ccc2c(c1)OCO2
→ -28	-16
CN1C(=O)c2cc(NC(=O)Cc3cccs3)ccc2OC[C@H]2O[C@@H](CC(=O)NCCCN3CCOCC3)CC[C@@H]21
→ 5	-3
CC(C)C#Cc1ccc([C@@H]2[C@H]3CN(S(=O)(=O)c4ccccc4)CC(=O)N3[C@H]2CO)cc1
→ ?	·
CO[C@@H]1CN(C)C(=O)c2cc(NC(=O)C3CCCCC3)ccc2OC[C@@H](C)N(Cc2cccnc2)C[C@@H]1C
→ -21	-18
COc1ccc2c3c(n(C)c2c1)[C@@H](CO)N(Cc1ccc2c(c1)OCO2)CC31CN(C(=O)C2CC2)C1
→ 7	-1
CO[C@@H]1CN(C)C(=O)c2cc(NC(=O)C3CC3)ccc2OC[C@@H](C)N(CC2CCCC2)C[C@@H]1C
→ -11	-6
O=C(O)C[C@@H]1CC[C@@H](NC(=O)CCN2CCCCC2)[C@H](CO)O1
→ 4	0
CNC(=O)C[C@H]1CC[C@H]2[C@@H](COC[C@H](O)CN2Cc2ccc(Cl)c(Cl)c2)O1
→ 3	12
CN(C)CC(=O)Nc1ccc2c(c1)[C@@H]1C[C@H](CC(=O)NC3CCCCC3)O[C@H](CO)[C@@H]1O2
→ 2	0

Next section.
Below each compound: Vaccinia stage	Vaccinia stage Venus
C[C@@H]1CN([C@H](C)CO)C(=O)Cc2cc(NS(=O)(=O)c3cn(C)cn3)ccc2O[C@@H]1CN(C)CC1CCCCC1
→ 1	0
COc1ccc(CN(C)C[C@@H]2Oc3c(NS(=O)(=O)c4cn(C)cn4)cccc3C(=O)N([C@H](C)CO)C[C@@H]2C)cc1
→ 15	11
CCCN(C)C[C@H]1Oc2cc(-c3ccccc3F)ccc2S(=O)(=O)N([C@H](C)CO)C[C@H]1C
→ -7	-14
COCC#Cc1cnc2c(c1)C(=O)N([C@@H](C)CO)C[C@@H](C)[C@H](CN(C)C(=O)c1cnccn1)O2
→ 11	4
C[C@H](CO)N1C[C@H](C)[C@@H](CN(C)C(=O)Nc2ccc3c(c2)OCO3)Oc2ccc(NC(=O)Nc3ccc(C(F)(F)F)cc3)cc2C1=O
→ 19	11
Cc1noc(C)c1NC(=O)Nc1ccc2c(c1)C(=O)N([C@@H](C)CO)C[C@@H](C)[C@H](CN(C)S(C)(=O)=O)OCCCC[C@@H](C)O2
→ 0	2
C[C@H](CO)N1C[C@H](C)[C@@H](CN(C)C(=O)Nc2ccc(F)cc2)Oc2ccc(N(C)C)cc2C1=O
→ 22	19
COc1ccc(-c2ccc3n(c2=O)C[C@@H]2[C@@H](CO)[C@H](C(=O)N(C)C)[C@H]3N2Cc2ccncc2)cc1
→ 2	7
C[C@@H]1CN([C@@H](C)CO)S(=O)(=O)c2ccc(C#Cc3cccnc3)cc2O[C@@H]1CN(C)CC1CCOCC1
→ -7	-8
CO[C@H]1CN(C)C(=O)c2ccc(NC(C)=O)cc2OC[C@@H](C)N(CCc2ccccc2)C[C@@H]1C
→ -6	-2
Cc1cccc(-c2ccc([C@H]3[C@H](CO)N4CCCCN(C(=O)c5ccc6c(c5)OCO6)C[C@@H]34)cc2)c1
→ -27	-23
CC(C)NC(=O)N1[C@H](CO)[C@@H](c2ccccc2)C12CN(C(=O)Cc1ccccc1)C2
→ -7	-4
O=C(CC1CC1)N1[C@@H]2CN(S(=O)(=O)c3ccccc3F)c3ccccc3[C@@H]2[C@@H]1CO
→ 4	9
C[C@@H]1CN([C@@H](C)CO)C(=O)c2cc(NC(=O)Nc3ccc(C(F)(F)F)cc3)ccc2O[C@@H](C)CCCCO[C@H]1CN(C)C(=O)Nc1cccc2ccccc12
→ 17	13
CCCC(=O)Nc1ccc2c(c1)C(=O)N(C)C[C@@H](OC)[C@@H](C)CN(CCc1ccccc1)[C@@H](C)CO2
→ -18	-14
CNC[C@H]1OCCCC[C@@H](C)Oc2ccc(NC(=O)C3CCCCC3)cc2C(=O)N([C@@H](C)CO)C[C@@H]1C
→ -1	11
C[C@H]1CN([C@@H](C)CO)C(=O)Cc2cc(NC(=O)c3ccncc3)ccc2O[C@H]1CN(C)Cc1ccccc1
→ 18	19
O=S(=O)(NCC[C@H]1CC[C@@H](NS(=O)(=O)c2cccc(Cl)c2)[C@@H](CO)O1)c1cccc(F)c1
→ -16	-12
C[C@H]1CN([C@@H](C)CO)C(=O)CCCn2cc(nn2)CO[C@@H]1CN(C)C(=O)Nc1ccc(N2CCCCC2)cc1
→ 1&-5	7&2
